RE007 growth inh = less growth of the S. pombe RE007 Vpr strain; S. pombe RE007 Vpr strain, BacTiter-Glo ATP luminescence, 24 h; control for the full effect not named in the record; Potency, µM (highest dose often 92.2 µM), inactives show at the highest dose activity change, negative = less growth; 360,000 compounds, 0.21% hits; active = well fitted falling curve with a large enough effect; inconclusive = small, poorly fitted or top-dose-only effect; inactive = no such curve, though single readings can be large or run the other way;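 note: % is set by controls: 0 for no effect and ±100 for the full control effect; nearly all actives have a fitted effect of over 50% in size; the assay follows cell death caused by Vpr and the record does not say whether a fall means rescue or toxicity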
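Fission yeast strain RE007, carrying one chromosomally integrated HIV-1 vpr copy, was seeded at OD 0.01 in PMG+AL medium with 23 nL pinned compound. After 24 h at 30 °C and 99% humidity, viability was read by BacTiter-Glo luminescence.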
Cruzain noTriton = cruzain (T. cruzi) inhibition without detergent; purified cruzain, Z-FR-AMC fluorescence, no detergent; P25779; Potency, µM, inactives show max response, negative = inhibition, most hits filed as inhibitors; 200,000 compounds, 2.3% hits;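 note: plate controls were enzyme without inhibitor for no effect and buffer without enzyme for full effect; nearly all actives have a fitted effect of over 40% in size; top concentration of the series not given in the record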
Target sequence (P25779 123-467 limits assumed): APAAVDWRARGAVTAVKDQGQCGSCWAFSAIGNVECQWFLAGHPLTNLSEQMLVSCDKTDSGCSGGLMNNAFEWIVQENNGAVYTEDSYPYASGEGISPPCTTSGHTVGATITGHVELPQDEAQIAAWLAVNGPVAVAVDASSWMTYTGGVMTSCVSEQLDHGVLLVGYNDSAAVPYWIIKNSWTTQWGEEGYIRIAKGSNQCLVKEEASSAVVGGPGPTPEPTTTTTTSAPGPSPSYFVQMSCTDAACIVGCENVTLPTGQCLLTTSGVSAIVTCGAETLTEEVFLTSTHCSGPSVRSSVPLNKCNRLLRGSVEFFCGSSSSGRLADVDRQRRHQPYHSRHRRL
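Purified cruzain at 1.5 nM, pre-incubated 15 min with compound at room temperature in 100 mM sodium acetate pH 5.5, 5 mM DTT, 0.00005% Triton X-100. Reaction started with 2 uM Z-FR-AMC; AMC fluorescence increase over 60 s gives rate.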
Cruzain Triton = cruzain (T. cruzi) inhibition with detergent | P25779 | purified cruzain, Z-FR-AMC fluorescence, 0.01% Triton | Potency, µM, for the others: max response, negative = inhibition, actives largely listed as inhibitors | 200,000 compounds, 0.43% hits | AID 1478;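 note: plate controls were neutral wells for no effect and buffer without enzyme for full effect; nearly all actives have a fitted effect of over 40% in size; top concentration of the series not given in the record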
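Detergent-containing run (0.01% Triton X-100) in acetate buffer pH 5.5 with 5 mM DTT: enzyme at 1.5 nM final, 15 min compound preincubation at room temperature, then 2 uM Z-FR-AMC substrate. Activity taken as 60 s fluorescence increase at 360/450 nm.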
SARS PLpro yeast = inhibitors of SARS-CoV papain-like protease in yeast; 330,000 compounds, 0.19% hits; Potency, µM (titrated, usually from 32.9 µM), without a hit: at the top dose activity, positive = growth rescue; S. cerevisiae expressing SARS-CoV PLpro, growth rescue; control for the full effect not named in the record; active means well fitted rising curve with a large enough effect; inconclusive means small, poorly fitted or top-dose-only effect; inactive means no such curve, though single readings can be large or run the other way; note: 0% is about no effect; nearly all actives have a fitted effect of over 55% in size; growth read by luminescence after 48 h
NS1 function inh = blocks influenza NS1 protein function | S. cerevisiae slowed by influenza A NS1, growth recovery by OD600 | Potency, µM (highest dose often 46.1 µM), inactives show at the top dose activity, positive = more growth | AID 2326 | 270,000 compounds, 0.4% hits; active means well fitted rising curve with a large enough effect; inconclusive means small, poorly fitted or top-dose-only effect; inactive means no such curve, though single readings can be large or run the other way; note: nearly all actives have a fitted effect of over 50% in size
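A cell-based growth assay was used: compounds that relieve NS1-induced slow growth of budding yeast raise OD600. Assay medium was yeast nitrogen base with ammonium sulphate and -URA supplement, pH 6.0, with 2% galactose.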
2A StopGo = FMDV 2A StopGo reporter, luciferase signal; human cells with a luciferase reporter of 2A StopGo recoding; control for the full effect not named in the record; Potency, µM (highest dose often 57.9 µM), inactives show at the top dose signal change, negative = less light; 410,000 compounds, 1.2% hits; AID 1159524; active = well fitted falling curve with a large enough effect; inconclusive = small, poorly fitted or top-dose-only effect; inactive = no such curve, though single readings can be large or run the other way; tested in HEK293T cells; note: % is set by controls: 0 for no effect and ±100 for the full control effect; nearly all actives have a fitted effect of over 45% in size; luciferase light after 4 h
Lassa entry inh = inhibitors of Lassa virus binding or cell entry. 300,000 compounds, 1.2% hits. Potency, µM (top dose mostly 37.9 µM), for the others: top-dose activity change, negative = inhibition, usual class: inhibitors. Lassa virus pseudotype entry inhibition, cell reporter; control for the full effect not named in the record; active means well fitted inhibition curve with a large enough effect; inconclusive means small, poorly fitted or top-dose-only effect, or effect the other way; inactive means flat fitted curve, though single readings scatter; tested in HEK293 cells; note: % is set by controls: 0 for no effect and ±100 for the full control effect; nearly all actives have a fitted effect of over 50% in size; luciferase read-out
MARV entry inh = Marburg virus entry inhibition; 300,000 compounds, 1.8% hits; Marburg virus pseudotyped entry inhibition, cell reporter; control for the full effect not named in the record; about a third of the inactives were read at about 46 µM; Potency, µM (series often up to 37.8 µM), inactives show at the top dose activity change, negative = inhibition, most hits filed as inhibitors; active = well fitted inhibition curve with a large enough effect; inconclusive = small, poorly fitted or top-dose-only effect, or effect the other way; inactive = flat fitted curve, though single readings scatter; tested in HEK293 cells; about a fifth of its hits are not listed in these tables; note: % is set by controls: 0 for no effect and ±100 for the full control effect; luciferase read-out
* marks the source's active call; other numbers are inactive results; ? = inconclusive; · = not tested or not shown; & = joins results of further samples; [ ] = another dose, or the depositor's remark. Unless noted, calls come from the whole dose curve; as a rule, active = well fitted curve in the direction sought with a large enough effect; inconclusive = small, poorly fitted or top-dose-only effect, or another doubt; inactive = no such curve, though single readings can be large; an effect the other way counts as inactive or inconclusive. Potency is the fitted concentration of half-maximal effect.

SMILES | RE007 growth inh | Cruzain noTriton | Cruzain Triton | SARS PLpro yeast | NS1 function inh | 2A StopGo | Lassa entry inh | MARV entry inh
O=C(/C(=C(/[O-])c1ccccc1)[n+]1ccccc1)c1ccc([N+](=O)[O-])cc1 | -15% | -19% | -4.6% | 7% | -11% | 9% | 8% | ?
COc1ccc(N(CC(=O)Nc2ccc3c(c2)OCO3)S(=O)(=O)c2ccccc2)c(OC)c1 | -14% | ? | -1.1% | 4% | ? | 39%[activator] | -15% | 0%&0%
O=C(NC1CCS(=O)(=O)C1)N1CCCCC1 (stereo not given) | -2% | 5% | 4.0% | 0% | -1% | -6% | 1% | ?
CCNS(=O)(=O)c1cc(Br)ccc1OC | 6% | 6% | -2.3% | 1% | 5% | 99%[activator] | 12% | 3%
NS(=O)(=O)c1ccc(CNC(=O)C2CCCN2C(=O)c2cccs2)cc1 (stereo not given) | 4% | · | · | 1% | · | 3% | 16%[46.1 µM] | -2%[46.1 µM]
CC(CCc1ccccc1)NC(=O)CNc1cccc([N+](=O)[O-])c1 (stereo not given) | -21% | · | · | -1% | -6% | -9% | 10% | -12%[46.1 µM]
Cc1ccc(Nc2nc(NCCCN3CCOCC3)nc(N)c2[N+](=O)[O-])cc1C | -4% | -5% | -6.7% | -7% | -1% | -14% | 9% | -29%
CCOC(=O)C(C(=O)NCc1ccc(C)cc1)c1ncc(C(F)(F)F)cc1Cl (stereo not given) | -3% | -5% | -5.4% | -8% | -1% | 0% | ? | 27%
CN1CCN(c2nc(Nc3cccc(C(F)(F)F)c3)nc(N3CCOCC3)n2)CC1 | -10% | 14% | 0.2% | -1% | -32% | 27% | ? | 21µM*
Oc1ccc(NCc2ccc(OCc3ccccc3)cc2)cc1 | -10% | -15% | -16% | -4% | -4% | 24%&0% | ? | ?

Filtered by structure, the compounds so far with an aryl methoxy group.
SMILES | RE007 growth inh | Cruzain noTriton | Cruzain Triton | SARS PLpro yeast | NS1 function inh | 2A StopGo | Lassa entry inh | MARV entry inh
COc1ccc(N(CC(=O)Nc2ccc3c(c2)OCO3)S(=O)(=O)c2ccccc2)c(OC)c1 | -14% | ? | -1.1% | 4% | ? | 39%[activator] | -15% | 0%&0%
CCNS(=O)(=O)c1cc(Br)ccc1OC | 6% | 6% | -2.3% | 1% | 5% | 99%[activator] | 12% | 3%

Additional compounds follow:
SMILES | RE007 growth inh | Cruzain noTriton | Cruzain Triton | SARS PLpro yeast | NS1 function inh | 2A StopGo | Lassa entry inh | MARV entry inh
CCCCOc1ccc(NC(=O)CSc2cccc3cccnc23)cc1 | -5% | 0% | 8.1% | 4% | -12% | 15% | 3% | -19%
Cc1ccc(NC(=O)CN2C(=O)S/C(=C\c3cc(C)n(-c4cccc(C(=O)O)c4)c3C)C2=O)cc1 | -16% | · | · | 1% | 11µM* | -15% | -1% | -4%[46.1 µM]
CCN(CCNC(=O)C1=C(C)C(=O)OC12CCC(C)CC2)c1ccccc1 (stereo not given) | -11% | · | · | 0% | -6% | -5% | ? | -20%
Cc1c(OC(C)C(=O)NCc2ccncc2)ccc2c3c(c(=O)oc12)CCCC3 (stereo not given) | 12% | · | · | -2% | -8% | -12% | ? | ·
O=C(COC(=O)C1=COCCO1)NCc1ccc(F)cc1 | 9% | · | · | 3% | -5% | -1% | · | ·
Cc1ccc(NC(=O)C(C)Sc2nnc(-c3cccnc3)o2)cc1 (stereo not given) | 27% | -2% | 3.8% | -2% | -2% | 55%[activator] | 6% | 12%[46.1 µM]
COc1ccc2c(c1)-c1c(ssc1=S)C(C)(C)N2S(=O)(=O)c1ccc(C)cc1 | 2% | ? | -3.3% | -26% | ? | -12% | ? | ?
Fc1ccc(COc2ccccc2CNCc2ccncc2)cc1 | 11% | 21% | 1.7% | 3% | 2% | -18% | -13% | -39%
COc1ccc([N+](=O)[O-])cc1NC(=O)C(C)OC(=O)c1ccccn1 (stereo not given) | -2% | · | · | 1% | · | -2% | 2% | 21%[46.1 µM]
CCCCc1nc2cc(C(=O)N3CCCC(COC)C3)ccc2o1 (stereo not given) | 1% | · | · | -2% | -26% | 33%[activator] | -15% | 26%
Cc1cc(S(=O)(=O)ON2C(=O)c3ccccc3C2=O)ccc1F | -7% | · | · | -10% | 0% | ? | · | ·
COc1ccc(OC)c(NC(=O)CNC(c2ccccc2)c2ccccc2)c1 | 18% | · | · | 0% | -32% | ? | · | ·
COc1ccc2c(c1)c1nc3ccccc3nc1n2Cc1ccc(OC(C)C)c(OC)c1 | -1% | 23% | -3.6% | -5% | 1% | -19% | -22% | ?
CCOC(=O)c1sc2ncnc(N3CCN(C(=O)OCC)CC3)c2c1C | -3% | 27% | -10.0% | 29% | -33% | 16µM* | ? | -16%
C/C(=N\Nc1cccc2cccnc12)c1ccc(N)cc1 | ? | · | · | -2% | 7% | 20% | 2%[46.1 µM] | ?
COc1ccc(NC(=O)CN(C)C(=O)CCC2CCCC2)cc1 | 1% | · | · | -1% | 7% | -11% | -2%[46.1 µM] | 0%[46.1 µM]
Cc1ccc(NC(=O)N(Cc2cn(C)c3ccccc23)C2CCCCC2)cc1C | · | -5% | -7.0% | · | · | 40%[activator] | ? | ?
O=C(COC(=O)Cc1ccccc1)Nc1ccc(SC(F)F)cc1 | 1% | 13% | -7.3% | -21% | -34% | -10% | · | ·
CCOC(=O)c1sc(NC(=O)c2ccc(S(=O)(=O)N(C)C)cc2)nc1C | -8% | -11% | 0.9% | -4% | 0% | -14% | 0% | -6%
CCOc1ccccc1/C=N/NC(=O)CSc1n[nH]c(=O)[nH]c1=O | -2% | · | · | 0% | 4% | 0% | · | ·
Cc1cc(C(=O)Nc2ccc(Cl)cc2)c(C)n1Cc1cccs1 | 18% | · | · | -2% | 7% | 11% | ? | ?
CCC1CCC2(CC1)NC(=O)N(CC(=O)c1c(C)[nH]c3ccccc13)C2=O (stereo not given) | 10% | -11% | -9.7% | -2% | -25% | -22% | -20% | 12%
COC(CN1CCc2c(C)nc3c(C#N)cnn3c21)OC | -10% | · | · | 3% | 7% | 0% | 2%[46.1 µM] | 3%[46.1 µM]
CC(=O)c1ccc(NC(=O)c2ccc3c(=O)n4c(nc3c2)CCCCC4)cc1 | 14% | · | · | 3% | 1% | ? | · | ·
Cc1ccccc1CNCc1c(C(=O)O)c(C)n(Cc2ccc(F)cc2Cl)c1C | · | 4% | -2.0% | · | · | -21% | -10%[46.1 µM] | 3%[46.1 µM]
Cc1cccc(CS(=O)(=O)c2ncc(Cl)c(C(=O)Nc3nc4ccc(F)cc4s3)n2)c1 | · | 5% | -3.7% | · | · | 16µM* | ? | 2%[46.1 µM]
CCOC(=O)CSc1nnc(CNC(=O)c2cccs2)n1Cc1ccccc1 | 1% | 8% | 2.2% | -3% | -4% | -9% | 9% | ?
Cc1ccccc1NC(=O)COC(=O)CCSc1ccccc1 | 6% | · | · | -3% | -4% | -6% | 9% | ?
CCCN(C(=O)c1cc2c(s1)-c1ccccc1SC2)c1ccccc1F | · | -17% | -8.9% | · | · | -19% | ? | -5%[46.1 µM]
CCn1c(P(C)(=O)O)nc2cc(NC(=O)c3ccccc3Cl)ccc21 | -4% | · | · | -2% | · | -5% | 2% | -1%[46.1 µM]
O=C1CC(N2CCc3ccccc32)C(=O)N1c1ccccc1 (stereo not given) | -14% | · | · | 1% | -3% | 18% | ? | ?
COc1cc2c(C#N)c(N3CCN(c4ccccc4OC)CC3)nc(N)c2c(N)n1 | 35% | 22% | -16% | -19% | -42% | 40µM* | 11µM* | ?
COc1cc(/C=C2\SC(=O)N(CCNC(=O)c3sc4cc(F)ccc4c3Cl)C2=O)cc(OC)c1OC | 1% | · | · | 0% | 5% | ? | 3% | -4%[46.1 µM]
Cn1c(=O)n(C)c2cc(N3CCOCC3)c(NS(=O)(=O)c3ccc(Cl)cc3)cc21 | · | ? | -0.4% | · | · | 0% | -18%[46.1 µM] | 4%[46.1 µM]
O=C(COC(=O)Cc1ccccc1[N+](=O)[O-])NCc1ccc(Cl)cc1 | -8% | 2% | -1.5% | -47% | -14% | -9% | · | ·
COc1ccc(NC(=O)C2C(c3ccccc3)C2(Cl)Cl)c(OC)c1 (stereo not given) | 3% | · | · | 2% | 19% | -27% | · | ·
CCOC(=O)NNC1CC(=O)N(c2ccc(OC)cc2)C1=O (stereo not given) | -1% | 1% | 0.6% | 0% | -3% | 10% | 3% | -29%
O=C(Nc1nccs1)c1ccc(Br)c(S(=O)(=O)N2CCCC2)c1 | -19% | · | · | 2% | 16% | -7% | -13% | -18%
S=C(Nc1ccccc1)Nc1ccc(Br)cc1 | -15% | · | · | -5% | -54% | 25% | · | ·
O=C(Nc1ccccc1)c1cccnc1NCCc1ccccc1 | -18% | 16% | -7.8% | -12% | -1% | -17% | 1% | ?
COc1ccc(NC(=O)c2nc(-c3ccc(C)cc3)n3c2CCCCC3)cc1 | · | -28% | -6.4% | · | · | -1% | -8%[46.1 µM] | ·
COc1ccc(-c2cc(N3C(=O)Nc4ccccc4N3O)n[nH]2)cc1OC | -1% | 2% | -0.3% | 12% | 11% | 9% | ? | -1%
COc1ccc(C(=O)Nc2ccc(-c3nnn(CC(=O)NCc4ccco4)n3)cc2)cc1 | -2% | · | · | 0% | 3% | -8% | · | ·
CN1CCC(N(CCc2ccccc2)C(=O)CCC(=O)O)CC1 | 6% | · | · | -3% | 7% | -1% | 2% | 16%
Cc1ccc(NC(=O)CSc2nnc(-c3cccnc3)n2CCN2CCCCC2)cc1 | -19% | -1% | -3.3% | -4% | -6% | 6% | 12% | -5%
CC(C)OCCCNC(=O)CCN1C(=O)COc2ccccc21 | -2% | -1% | 3.7% | -1% | -4% | · | 8% | 1%
Cc1nc2cc(Cc3ccccc3)ccc2o1 | 16% | · | · | · | · | 11% | ? | -2%

An unsorted share of the library; any-hit rate near 4.7%.
